FGF22 binding = shifts melting point of recombinant human FGF22; recombinant FGF22 thermal shift, SYPRO orange fluorescence; percent of sucrose octasulfate shift, DMSO zero; Q9HCT0; calls only at 9.99 µM; 340,000 tested, 1.5% active;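 active = melting point raised past a set limit in the mean and every replicate; three in four hits are not shown here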
Target sequence (Q9HCT0 whole entry, looked up): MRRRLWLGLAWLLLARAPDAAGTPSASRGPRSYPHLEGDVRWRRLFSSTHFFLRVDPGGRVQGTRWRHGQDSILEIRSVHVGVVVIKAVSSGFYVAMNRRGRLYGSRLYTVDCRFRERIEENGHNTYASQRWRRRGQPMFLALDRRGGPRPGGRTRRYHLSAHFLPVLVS
Ecoli rRNA inh = inhibits bacterial ribosomal RNA function over humanized ribosomes; E. coli WT GFP vs humanized-ribosome RFP mutants, fluorescence, 24 h; hits give low values; DMSO median 0, no signal -100; GFP signal change (wild-type ribosome), % (no concentration beside the values); 350,000 tested, 1.6% active; AID 720706;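 active = significant combined selectivity score with lowered wild-type GFP, culture density cut under 30%, mutant RFP and density less affected; inactive = any of these conditions unmet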; also: one replicate is shown; some compounds called inactive have numbers as strong as hits
Ecoli rRNA inh OD600 = second read-out of Ecoli rRNA inh, no call of its own (marks repeat the call); OD600 change, %; measured here: OD600 growth;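 optical density of the mix in the first replicate; 0 = DMSO median and -100 = no signal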
Ecoli rRNA inh RFP = second read-out of Ecoli rRNA inh, no call of its own (marks repeat the call); RFP signal change, %; measured here: RFP humanized mutant strains;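 first replicate; 0 = DMSO median and -100 = no signal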
Active calls of the source: *; i = inactive; + = active, no number; & = joins results of further samples. Only part of the results is shown, so the mix of outcomes need not match the whole.

A first look, 3 compounds:
Ecoli rRNA inh,Ecoli rRNA inh OD600,Ecoli rRNA inh RFP,FGF22 binding,canonical_smiles
3,1,7.8,i,COCc1[nH]nc2c1C(c1ccccc1)N(Cc1ccccc1)C2=O (centres undefined)
-13,-25,-1.8,i,Cc1cc(N2CCN(C(=O)OC(C)(C)C)C[C@H]2C)ccc1Br
-1,-3,-2.3,i,C[C@H](CO)N1C[C@H](C)[C@@H](CN(C)S(=O)(=O)c2cccs2)OCCCC[C@H](C)Oc2ccc(NC(=O)Cc3ccccc3)cc2C1=O

Results, previewed entries included:
Ecoli rRNA inh,Ecoli rRNA inh OD600,Ecoli rRNA inh RFP,FGF22 binding,canonical_smiles
3,1,7.8,i,COCc1[nH]nc2c1C(c1ccccc1)N(Cc1ccccc1)C2=O (centres undefined)
-13,-25,-1.8,i,Cc1cc(N2CCN(C(=O)OC(C)(C)C)C[C@H]2C)ccc1Br
-1,-3,-2.3,i,C[C@H](CO)N1C[C@H](C)[C@@H](CN(C)S(=O)(=O)c2cccs2)OCCCC[C@H](C)Oc2ccc(NC(=O)Cc3ccccc3)cc2C1=O
-2,-14,2.0,i,COc1ccc(NC(=O)N(C)C[C@@H]2OCCCC[C@@H](C)Oc3ccc(NS(=O)(=O)c4c(C)noc4C)cc3C(=O)N([C@@H](C)CO)C[C@H]2C)cc1
4,13,-0.3,i,C[C@@H]1CCCCO[C@@H](CN(C)S(=O)(=O)c2ccc(Cl)cc2)[C@H](C)CN([C@H](C)CO)C(=O)c2cc(NS(=O)(=O)c3ccc(Cl)cc3)ccc2O1
6,14,-2.6,i,COc1ccc(C2CC(=O)C(c3ccccc3C)=CN2Cc2ccccc2)cc1 (centres undefined)
3,5,2.1,i,COc1ccc(NC(=O)N(C)C[C@H]2Oc3c(NS(=O)(=O)c4ccc(F)cc4)cccc3C(=O)N([C@@H](C)CO)C[C@H]2C)cc1
-2,2,1.4,i,CC(C)NC(=O)Nc1ccc2c(c1)C(=O)N(C)[C@H]1CC[C@@H](CC(=O)NC3CCCCC3)O[C@@H]1CO2

More compounds
Ecoli rRNA inh,Ecoli rRNA inh OD600,Ecoli rRNA inh RFP,FGF22 binding,canonical_smiles
-2,-4,0.1,i,COC(=O)C[C@@H]1CC[C@H]2[C@@H](COc3ccc(NC(=O)c4ccccc4OC)cc3C(=O)N2C)O1
1,2,-1.8,i,Cc1ccc(S(=O)(=O)Nc2ccc3c(c2)C(=O)N([C@@H](C)CO)C[C@H](C)[C@H](CN(C)S(=O)(=O)c2ccc(Cl)cc2)OCCCC[C@@H](C)O3)cc1
-1,4,2.1,i,COc1ccc(NC(=O)Nc2ccc3c(c2)CC(=O)N([C@@H](C)CO)C[C@H](C)[C@@H](CN(C)C(=O)Nc2cccc4ccccc24)O3)cc1
2,-7,0.5,i,Cc1noc(C)c1NC(=O)Nc1ccc2c(c1)C(=O)N([C@@H](C)CO)C[C@@H](C)[C@@H](CN(C)C(=O)Nc1ccc(F)cc1)O2
-1,-2,0.7,i,CC(=O)Nc1ccc2c(c1)C(=O)N(C)[C@@H]1CC[C@H](CC(=O)NC3CCCCC3)O[C@@H]1CO2
2,-4,-4.1,i,C[C@@H]1OC(C2CCCCC2)N(C)[C@H]2C[C@H]3c4[nH]c5c(-c6ccccc6)cccc5c4CCN3C(=O)[C@@H]12 (some centres undefined)
8,13,2.6,i,O=C(NCc1ccccc1)C(C1CC1)n1c(=O)c(-c2ccco2)nc2ccccc21 (centres undefined)
1,1,0.0,i,CC(C)NC(=O)N1C[C@@H]2[C@H](c3ccccc31)[C@@H](CO)N2C(=O)c1ccccc1F

Additional entries
Ecoli rRNA inh,Ecoli rRNA inh OD600,Ecoli rRNA inh RFP,FGF22 binding,canonical_smiles
2,16,1.0,i,Cc1noc(C)c1NC(=O)N(C)C[C@@H]1OCCCC[C@H](C)Oc2ccc(NC(=O)Nc3ccccc3)cc2C(=O)N([C@@H](C)CO)C[C@@H]1C
0,5,3.6,i,C[C@H]1CN([C@@H](C)CO)C(=O)c2cccc(NS(=O)(=O)c3ccccc3)c2O[C@@H]1CN(C)S(=O)(=O)c1ccc(Cl)cc1
1,10,3.5,i,COc1ccc(NC(=O)N2CC[C@H]3[C@@H]2c2cc(Br)ccc2N(C)[C@H]3CO)cc1
-8,-16,6.2,+,O=C(CCc1c[nH]c2ccccc12)Nc1ccc(Oc2cccnc2)cc1
2,13,0.1,i,CCNc1ccccc1
-2,-1,4.7,i,O=C(C[C@@H]1C[C@H]2c3cc(NC(=O)Nc4ccc(F)cc4)ccc3O[C@H]2[C@H](CO)O1)NCC1CC1
-22,-25,-5.0,i,C[C@@H]1C=CCCO[C@]12C(=O)N(Cc1ccc(Br)cc1)c1ccccc12
-1&-1,-1&-2,-1.4&1.3,i,O=C(C1CCOCC1)N1C[C@@H]2N[C@H](C1)C2c1ccc(-c2ccccc2F)cc1 (some centres undefined)

4 of these compounds, reformatted.
SMILES	Ecoli rRNA inh	Ecoli rRNA inh OD600	Ecoli rRNA inh RFP	FGF22 binding
C[C@H]1CN([C@@H](C)CO)C(=O)c2cccc(NS(=O)(=O)c3ccccc3)c2O[C@@H]1CN(C)S(=O)(=O)c1ccc(Cl)cc1	0	5	3.6	i
COc1ccc(NC(=O)N2CC[C@H]3[C@@H]2c2cc(Br)ccc2N(C)[C@H]3CO)cc1	1	10	3.5	i
O=C(CCc1c[nH]c2ccccc12)Nc1ccc(Oc2cccnc2)cc1	-8	-16	6.2	+
CCNc1ccccc1	2	13	0.1	i

Continued.
Ecoli rRNA inh,Ecoli rRNA inh OD600,Ecoli rRNA inh RFP,FGF22 binding,canonical_smiles
2,5,-3.4,i,COCC(=O)N(C)C[C@H]1Oc2cc(C#CC(C)C)ccc2S(=O)(=O)N([C@@H](C)CO)C[C@H]1C
1,2,1.2,i,CC(C)NC(=O)Nc1ccc2c(c1)C(=O)N([C@H](C)CO)C[C@H](C)[C@@H](CN(C)Cc1ccc3c(c1)OCO3)OCCCC[C@H](C)O2
2,-8,-1.5,i,COc1ccc(NC(=O)Nc2ccc3c(c2)[C@H]2C[C@H](CC(=O)N4CCOCC4)O[C@@H](CO)[C@H]2O3)cc1
1,-2,-1.4,i,CCCC(=O)Nc1ccc2c(c1)C(=O)N(C)[C@@H]1CC[C@H](CC(=O)OC)O[C@H]1CO2
-19,-41,-2.2,i,COC(=O)C1=C(C)N(C)C(=NCc2cccc(C(F)(F)F)c2)NC1c1ccccc1C(F)(F)F (centres undefined)
-1,-12,5.7,i,Cc1ccc(S(=O)(=O)Nc2ccc3c(c2)CC(=O)N([C@H](C)CO)C[C@@H](C)[C@@H](CN(C)S(=O)(=O)c2ccc(Cl)cc2)O3)cc1
-5,13,-2.2,i,CN(C)C(=O)c1cccc(-c2ccc3c(c2)[C@@H]2[C@@H](CCN2C(=O)C2CCCCC2)[C@@H](CO)N3)c1
17,14,2.3,i,C=CCNC(=S)N1C[C@H]2CON(C)[C@H]2C[C@H]1c1ccccc1Br

Next results follow:
Ecoli rRNA inh,Ecoli rRNA inh OD600,Ecoli rRNA inh RFP,FGF22 binding,canonical_smiles
5,13,3.8,i,Fc1ccc2nc(-c3ccc(CN4CCC5(CC4)CNc4ccccc45)cc3)c(-c3ccccc3)nc2c1
-36,-66,-14,i,COC(=O)C1=C(C)N(Cc2ccccc2C(F)(F)F)C(=NCc2ccc(OC)cc2)NC1c1ccc(Cl)cc1 (centres undefined)
3,5,-1.9,i,O=C(CC1CC1)Nc1ccc2c(c1)[C@H]1C[C@@H](CC(=O)N3CCOCC3)O[C@H](CO)[C@H]1O2
-2,1,8.1,i,C/C=C/c1ccc2c(c1)[C@H]1[C@H](CCN1S(=O)(=O)c1ccccc1F)[C@H](CO)N2
11,5,1.6,i,CN(C(=O)[C@@H](Cc1ccccc1)NC(=O)[C@H]1O[C@@H](n2ccc(=O)[nH]c2=O)[C@H](O)[C@@H]1O)C1CCCCC1
5,7,-1.0,i,Cc1noc(C)c1NC(=O)N(C)C[C@H]1OCCCC[C@H](C)Oc2ccc(NS(=O)(=O)c3cn(C)cn3)cc2C(=O)N([C@H](C)CO)C[C@@H]1C
-3,0,9.9,i,C[C@@H]1CN([C@@H](C)CO)S(=O)(=O)c2ccc(C#CC3CCCCC3)cc2O[C@H]1CN(C)Cc1cccnc1
2,10,4.2,i,CCCCOc1ccc(C(=O)NC2CCCCN(CCC)C2=O)cc1 (centres undefined)

(cont.)
Ecoli rRNA inh,Ecoli rRNA inh OD600,Ecoli rRNA inh RFP,FGF22 binding,canonical_smiles
-6,6,-2.1,i,CCS(=O)(=O)N1CCCCN2[C@H](C1)[C@@H](c1ccc(-c3ccc(C(=O)N(C)C)cc3)cc1)[C@@H]2CO
2,4,-0.5,i,COCCNC(=O)C[C@H]1C[C@H]2c3cc(NC(=O)Nc4ccccc4F)ccc3O[C@H]2[C@H](CO)O1
3,13,-2.3,i,Cc1noc(C)c1NC(=O)N(C)C[C@@H]1Oc2ccc(NS(C)(=O)=O)cc2CC(=O)N([C@H](C)CO)C[C@H]1C
24,11,-1.8,i,C[C@@H]1CN(c2ccc(N3CCNC[C@H]3C)cc2C#N)C[C@H](C)O1
-1,4,-0.8,i,COCC(=O)Nc1ccc2c(c1)[C@@H]1C[C@H](CC(=O)NCc3cc(F)ccc3F)O[C@H](CO)[C@@H]1O2
-8,-20,-0.2,i,CCC(C(=O)NCc1ccccc1)n1c(CSCCOc2ccccc2)nc2ccccc21 (centres undefined)
-4,-10,1.5,i,COc1ccc(S(=O)(=O)N(C)C[C@H]2Oc3c(NS(=O)(=O)c4ccc(F)cc4)cccc3C(=O)N([C@@H](C)CO)C[C@H]2C)cc1
-16,-8,7.4,i,O=C(N[C@H](C(=O)N1CCC[C@H]1C(=O)NCc1ccccc1)C1CCCCC1)c1ccccc1

Next part
Ecoli rRNA inh,Ecoli rRNA inh OD600,Ecoli rRNA inh RFP,FGF22 binding,canonical_smiles
6,16,-1.3,i,CC(C)C(C(=O)NCc1ccccc1)N1CCN(C(=O)C2CCCO2)CC1 (centres undefined)
0,3,-1.4,i,C[C@@H]1CCCCO[C@H](CN(C)C(=O)Cc2ccccc2)[C@H](C)CN([C@H](C)CO)C(=O)c2cc(NC(=O)CCC(F)(F)F)ccc2O1
2,-4,2.8,i,CN(c1cccnc1)c1ccc(NC(=O)Cc2c[nH]c3ccccc23)cc1Br
4,17,0.1,i,Cc1noc(C)c1NC(=O)N(C)C[C@H]1OCCCC[C@H](C)Oc2ccc(NS(C)(=O)=O)cc2C(=O)N([C@H](C)CO)C[C@@H]1C
-9,-10,4.9,i,CCC(CC)C(C(=O)NC1CCCC1)N1CCN(c2cc(C)nc3ccccc23)CC1 (centres undefined)
-2,-4,-2.2,i,COc1ccc(S(=O)(=O)Nc2ccc3c(c2)C(=O)N([C@@H](C)CO)C[C@@H](C)[C@H](CN(C)S(=O)(=O)c2ccc(OC)cc2)OCCCC[C@H](C)O3)cc1
4,9,-2.5,i,CNC[C@@H]1OCCCC[C@@H](C)Oc2ccc(NS(=O)(=O)c3c(C)noc3C)cc2C(=O)N([C@H](C)CO)C[C@@H]1C
4,0,-0.2,i,COCC(=O)Nc1ccc2c(c1)C(=O)N(C)[C@H]1CC[C@H](CC(=O)NC3CCCC3)O[C@@H]1CO2

Next results follow:
Ecoli rRNA inh,Ecoli rRNA inh OD600,Ecoli rRNA inh RFP,FGF22 binding,canonical_smiles
7,4,2.0,i,Cc1noc(C)c1NC(=O)Nc1ccc2c(c1)C(=O)N([C@H](C)CO)C[C@H](C)[C@H](CN(C)C(=O)Nc1cccc3ccccc13)OCCCC[C@@H](C)O2
1,5,-8.6,i,CN1C[C@@H](O)COC[C@@H]2O[C@@H](CC(=O)NC3CCC3)CC[C@H]21
0,3,-2.9,i,O=C(NCC[C@H]1CC[C@H](NS(=O)(=O)c2cccc(F)c2)[C@H](CO)O1)C1CC1
7,3,-2.5,i,O=C(NCc1ccccc1)C(c1ccc(F)cc1)N1CCN(C(=O)C2CCCO2)CC1 (centres undefined)
-40,-78,-18,i,CCN=C1NC(c2cccc(Cl)c2)C(C(=O)OC)=C(C)N1Cc1ccc(C(F)(F)F)cc1 (centres undefined)
-3,-9,0.1,i,O=C(C[C@@H]1C[C@H]2c3cc(NC(=O)Nc4ccccc4)ccc3O[C@H]2[C@H](CO)O1)NCc1cccnc1
0,-2,2.2,i,C[C@@H]1CCCCO[C@@H](CN(C)Cc2ccc3c(c2)OCO3)[C@@H](C)CN([C@@H](C)CO)C(=O)c2cc(NC(=O)Cc3ccccc3)ccc2O1
0,0,-1.9,i,C[C@@H]1CCCCO[C@@H](CN(C)C(=O)CCC(F)(F)F)[C@H](C)CN([C@@H](C)CO)C(=O)c2cc(NC(=O)c3ccncc3)ccc2O1

(list continues)
Ecoli rRNA inh,Ecoli rRNA inh OD600,Ecoli rRNA inh RFP,FGF22 binding,canonical_smiles
-2,4,-0.6,i,C[C@@H]1CN([C@@H](C)CO)C(=O)c2cccc(NC(=O)Nc3ccc4c(c3)OCO4)c2O[C@H]1CN(C)C(=O)Nc1ccccc1
2,4,0.5,i,C[C@@H]1CCCCO[C@@H](CN(C)C(=O)CCC(F)(F)F)[C@@H](C)CN([C@H](C)CO)C(=O)c2cc(NC(=O)CCCCCC(=O)Nc3ccccc3N)ccc2O1
4,6,-0.2,i,COc1ccc(NC(=O)N(C)C[C@@H]2Oc3ccc(NS(=O)(=O)c4cccs4)cc3CC(=O)N([C@H](C)CO)C[C@@H]2C)cc1
1,-2,1.9,i,O=C(C[C@@H]1CC[C@@H]2[C@H](COC[C@H](O)CN2C(=O)c2cc(Cl)cc(Cl)c2)O1)N1CCc2ccccc2C1

From PubChem BioAssay
